AmpC nodet inh: AmpC beta-lactamase inhibition, detergent-free assay; Potency, µM (top dose mostly 28.7 µM), without a hit: at the highest dose activity change, negative = inhibition; 1.8% of 71,000 active; AmpC nitrocefin hydrolysis, absorbance 480 nm, no detergent; potencies from a single point are estimates; active = falling curve, for most hits resting on a single point; inconclusive = weak or doubtful change; inactive = flat or rising curve; also: % of control where 0% means no effect; about half of the hits show no inhibition at the top dose; a quarter of the inactives give rising signals
Target sequence (P00811 whole entry, looked up): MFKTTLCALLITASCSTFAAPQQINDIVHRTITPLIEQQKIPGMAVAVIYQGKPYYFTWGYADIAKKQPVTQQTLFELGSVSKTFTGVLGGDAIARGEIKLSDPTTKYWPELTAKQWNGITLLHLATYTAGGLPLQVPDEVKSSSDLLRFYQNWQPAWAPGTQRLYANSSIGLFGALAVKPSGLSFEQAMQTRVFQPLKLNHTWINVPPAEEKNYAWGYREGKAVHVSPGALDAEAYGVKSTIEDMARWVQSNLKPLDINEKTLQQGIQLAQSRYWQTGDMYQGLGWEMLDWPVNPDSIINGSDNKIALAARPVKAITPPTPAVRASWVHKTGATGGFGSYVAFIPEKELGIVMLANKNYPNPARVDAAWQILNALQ
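AmpC, 20 mM phosphate pH 7.0; 15 min cpd preinc, RT; start with nitrocefin (800 uM stock); A480 kinetic read, 20 s intervals, 4 min. No-enzyme wells = negative control.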
Starred values were filed as active, the others as inactive; ? = inconclusive; & = joins results of further samples; [ ] = remark or other dose. Potency is read from the fitted curve at half-maximal effect.

SMILES | AmpC nodet inh
O=C1CCCc2nc(N3CCN(Cc4ccccc4)CC3)ncc21 | 54.9%
Cc1csc(NC(=O)CSc2nnc(-c3ccncc3)o2)n1 | -4.5%
O=C(O)c1cccc(N2C(=O)C3CC=C(Cl)CC3C2=O)c1 (stereo not drawn) | 2.5%
CP(C)(=O)CCC(=O)O | -3.7%
O=C(NC1CCCCC1)C(c1ccc(F)cc1)N(Cc1ccco1)C(=O)Cn1nnc2ccccc21 (stereo not drawn) | 13.1%
Cc1ccccc1-n1c(SCc2ccccn2)nc2n[nH]c(C)c2c1=N | 62.7%
COc1cccc(Oc2cncnc2-c2ccc(OC)cc2O)c1 | -4.0%
Cc1ccc(NC(=O)CCC(C(=O)O)N2C(=O)c3ccccc3C2=O)cc1 (stereo not drawn) | -6.6%
COC(=O)c1ccccc1OCC(=O)NC1CCCCC1 | 32.1%
CCNc1ncc2nc(-c3ccc(F)cc3)c(=O)n(CCOC)c2n1 | -1.4%
CCC(CC)C(=O)Nc1cccc(C(=O)N2CCCCCC2)c1 | 10.5%
Cc1ccc(S(=O)(=O)c2cc3c(=O)n4ccccc4nc3n(CC3CCCO3)c2=N)cc1C (stereo not drawn) | 100.5%
CSCCC(NC(=O)C1CCC(C)CC1)C(=O)N1CCN(c2ccccn2)CC1 (stereo not drawn) | 58.2%
COc1ccccc1CNC(=O)c1cnc2ccccn2c1=O | 54.9%
Cc1csc(N(C(=O)c2cccc(S(=O)(=O)N(C)C)c2)c2ccccc2)n1 | 63.7%
COC(=O)c1[nH]c2ccc(C)cc2c1NC(=O)CN1CCCCC1C (stereo not drawn) | 13.7%
Cc1ccc(N)cc1-n1c(C)ccc1C | 27.7%
Cc1ccc2c(c1)CCCN2C(=O)Nc1ccc2c(c1)OCO2 | 1.1%
Clc1ccccc1C1CC(c2ccccc2)Nc2ncnn21 (stereo not drawn) | 22.8%
COC(=O)c1cn(CC(=O)NC2CCCCC2)c2ccccc12 | -2.5%
Cc1occc1-c1nnc(SCC(=O)Nc2nccs2)n1CCc1ccccc1 | 1.0%
CON(C)c1nc(Oc2ccc(=O)[nH]n2)nc(N(C)C)n1 | 1.0%
CCCCNC(=O)c1c(N)n(/N=C/c2ccccn2)c2nc3ccccc3nc12 | -11.2%
CCNC(=O)CN(c1ccc(OC)c(OC)c1)S(=O)(=O)c1ccccc1 | -3.2%
CC(=O)C1C(c2ccncc2)NC(=O)NC1(O)C(F)(F)F (stereo not drawn) | -6.1%

(next part)
SMILES | AmpC nodet inh
COC(=O)c1ccc(-c2ccc(CNCC(O)c3ccccc3)o2)cc1 (stereo not drawn) | 4.2%
O=C(CC1(O)C(=O)Nc2cc(Cl)cc(Cl)c21)c1ccccc1O (stereo not drawn) | 12.6µM*
CCOCCn1c(N2CCN(c3ccc(OC)cc3)CC2)nc2c1c(=O)n(C)c(=O)n2C | 85.2%
CN(C(=O)c1ccc(NC(=O)C2CC=CCC2C(=O)O)cc1)c1ccccc1 (stereo not drawn) | 4.1%
Cc1ccc2c(c1)C(O)(CC(=O)c1cccnc1)C(=O)N2 (stereo not drawn) | -2.8%
O=C(Sc1nnc(-c2ccccc2)o1)N1c2ccccc2Sc2ccccc21 | -15.1%
Oc1cccc(Nc2ccccc2)c1 | -13.3%
CCN(CC)c1ccc(NC(=O)Cn2cc3c(n2)CCC(C)C3)c(C)c1 (stereo not drawn) | 37.6%
CCOc1ccccc1-n1nnnc1SCc1nc2ccccc2s1 | -9.9%
O=C(NCCc1c[nH]c2ccccc12)C1CCN(c2nnc(N3CCCC3=O)s2)CC1 | 72.0%
O=C(CN1C(=O)CSC1=O)c1ccccc1 | 4.1%
C/C=C1\C[C@H](C)[C@](O)(CO)C(=O)OCC2=CCN3CC[C@@H](OC1=O)[C@@H]23 | 4.1%
Cc1c(Br)cc(C(=O)NCCCN2CCOCC2)c(C)c1C | 36.9%
CCOc1ccc(CNC23CN4CN(CN(C4)C2)C3)cc1 | -5.5%
CCCCn1c(C(C)NC(=O)CCC)nc2ccccc21 (stereo not drawn) | 48.1%
COCCn1c(=O)c(-c2cc(F)cc(F)c2)nc2cnc(OC)nc21 | 48.0%
COc1ccc(CCNC(=O)CCNS(=O)(=O)c2cccc3nsnc23)cc1OC | 10.0%
Cc1c(NC(=O)CSc2nncc3ccccc23)c(=O)n(-c2ccccc2)n1C | 2.6%
CC[C@]1(c2ncc[nH]2)Cc2ccccc2O1 | 6.3%
N[C@@H](Cc1c[nH]c2ccccc12)c1nnc(SCc2ccccc2F)o1 | 93.6%
OC(CN1CCCCC1)CN(c1ccccc1)c1ccccc1 (stereo not drawn) | 7.0%
CN(C)S(=O)(=O)c1ccc(NS(=O)(=O)/C=C/c2ccccc2)cc1 | -16.6%
Cc1nn(Cc2ccc(Cl)c(Cl)c2)c(C)c1NC(=O)c1cc(-c2ccco2)on1 | 7.6%
C=CC(=O)OC | -1.6%
CC(C)(C)OC(=O)NC(CCNC=C1C(=O)OC(C)(C)OC1=O)C(=O)O (stereo not drawn) | 8.6%

Additional results follow.
SMILES | AmpC nodet inh
CCC(c1nnnn1CCc1ccccc1)N1CCN(C(=O)c2ccco2)CC1 (stereo not drawn) | 56.7%
CS(=O)(=O)N1CCN(C(=O)c2ccc(-c3ccccc3)cc2)CC1 | 91.6%
CNC(=O)Nc1cc(C(C)(C)C)no1 | 0.5%
CSc1nc(-c2ccco2)nn1S(=O)(=O)c1ccccc1 | 2.3%
CCC(C)NC(=O)Cn1cnc2sc(C)cc2c1=O (stereo not drawn) | -12.8%
c1csc(-c2csc(-c3cccs3)n2)c1 | -9.4%
O=C(CN1C(=O)CSC1=O)Nc1ccccc1N1CCOCC1 | 2.3%
COc1cc(OC)c(C2C(C#N)=C(N)Oc3cc(C)n(CCCN4CCOCC4)c(=O)c32)cc1OC (stereo not drawn) | -15.3%
CC(C)c1nccn1Cc1ccc(Cl)cc1Cl | 8.9%[5.75 µM]
CCc1ccc2nc(SCC(=O)N(CC)CC)c(C#N)cc2c1 | 80.7%
O=C(Nc1ccc(Cl)cc1)Nc1ccc2c(c1)N1CCN=C1S2 | -11.5%
COc1cccc(-n2c(CNc3ccc(F)cc3)nnc2SCC(N)=O)c1 | 59.8%
Cn1cccc1C(=O)N1CCC2(CC1)CCN(c1ccc(-c3ccccc3)cc1)CC2 | 75.8%
CC1=C(C(=O)N2CCC3(CC2)OCCO3)C2(CCC(C)CC2)OC1=O (stereo not drawn) | 7.6%
CCOc1ccc(C2C(C(=O)Nc3ccc(F)cc3)=C(C)Nc3nc(CCCO)nn32)cc1 (stereo not drawn) | 66.2%
CCOC(=O)Nc1ccc(S(=O)(=O)NCc2ccccc2)cc1 | -14.9%
O=C1c2ccccc2CN1CCNS(=O)(=O)c1ccc(Cl)cc1 | 3.5%
CC(C)Cn1c(=O)c(C(=O)Nc2ccccc2S(N)(=O)=O)c(O)c2ccccc21 | 8.1%
CC1CC(C)CN(CCCn2c(=S)[nH]c3ccccc3c2=O)C1 (stereo not drawn) | -6.7%
COCCn1c(=NC(=O)CSC(C)=O)sc2cc(OC)ccc21 | 4.0%
O=C(NC1CCCCCCC1)c1ccco1 | 5.8%
CN(C1CCS(=O)(=O)C1)S(=O)(=O)c1ccc(N2CCCC2=O)cc1 (stereo not drawn) | -1.8%
CC(CN(C)Cc1ccccc1)OC(=O)c1ccc2c(c1)OCCO2 (stereo not drawn) | 13.2%
O=C(Nc1nc(-c2ccncc2)cs1)c1ccc(S(=O)(=O)N2CCOCC2)cc1 | 54.2%
CN(C)c1cc(O)c(C(=S)Nc2ccccc2)c(N(C)C)c1 | 8.9%

A different layout for some results above.
> O=C(O)c1cccc(N2C(=O)C3CC=C(Cl)CC3C2=O)c1 (stereo not drawn)
  AmpC nodet inh: 2.5%

> OC(CN1CCCCC1)CN(c1ccccc1)c1ccccc1 (stereo not drawn)
  AmpC nodet inh: 7.0%

> CCN(CC)c1ccc(NC(=O)Cn2cc3c(n2)CCC(C)C3)c(C)c1 (stereo not drawn)
  AmpC nodet inh: 37.6%

> CSCCC(NC(=O)C1CCC(C)CC1)C(=O)N1CCN(c2ccccn2)CC1 (stereo not drawn)
  AmpC nodet inh: 58.2%

(continued)
SMILES | AmpC nodet inh
CCOC(=O)c1cc2cc(C)ccc2[nH]1 | -7.1%
CCc1nnc(NC(=O)c2ccncc2)s1 | -4.0%
COc1cc2c(CCNC(C)=O)c[nH]c2cc1Cl | 11.2%&2.3%
NC(=O)C1CCCN(S(=O)(=O)c2ccccc2)C1 (stereo not drawn) | 10.3%
COc1ccc(NC(=O)c2ccco2)cc1NC(=O)c1ccc(Br)o1 | 5.3%
CCC(C)(C)n1nnnc1C(c1cc2cc(OC)c(OC)cc2[nH]c1=O)N1CCc2ccccc21 (stereo not drawn) | 137.1%
COC(=O)C1=C(N)Oc2cc(C)n(Cc3cccnc3)c(=O)c2C1c1ccc(OC)c(OC)c1OC (stereo not drawn) | 62.8%
CCCC(=O)Nc1c(O)c2ccccc2[nH]c1=O | -8.1%
Cc1nn(CC(O)COc2ccc3c(c2)CCC3)c(C)c1C (stereo not drawn) | 76.1%
CC(=O)c1cccc(NC(=O)N2CCCC2C(=O)NCc2ccccc2)c1 (stereo not drawn) | 0.6%
CC(C)c1nnc(NC(=O)CN(C)S(=O)(=O)c2ccc3c(c2)OCCO3)s1 | -7.5%
C=CC(=O)OCCOCCOCCOCCOC(=O)C=C | 6.8%&-5.0%
CCOc1cccc(-c2nc3cc(C)ccc3o2)c1 | -2.7%
COc1ccc(NC(=O)CSc2nc(C)cc(C(F)(F)F)n2)cc1 | 12.5%
Cc1cc(SCC(=O)OCC(=O)N2CCN(C(=O)c3ccco3)CC2)c(C)cc1Br | 129.9%
Cc1c(NC(=O)C(C)Sc2nnc(-c3ccccc3)o2)c(=O)n(-c2ccccc2)n1C (stereo not drawn) | -2.9%
CC(=O)n1c2ccccc2c2c(C#N)c(N3CCCCC3)sc21 | -5.6%
CC(=O)c1cccc(NC(=O)N2CCCC2C(=O)Nc2cccc(C)c2)c1 (stereo not drawn) | 9.8%
C=CCOc1ccc(CC2C(=O)N(C)C(=O)N(C)C2=O)cc1 | 83.5%
O=c1c2cc(N3CCOCC3)ccc2[nH]c(=S)n1CC1CCCO1 (stereo not drawn) | 1.5%
CC(=O)O[C@H]1CSC[C@H]1NC(=O)c1ccccc1 | -8.1%
CC(=O)Nc1nc2ccccc2n1Cc1ccccc1C | 19.2%
O=C(O)CCSc1ncnc2nc[nH]c12 | 2.4%[5.75 µM]
CC(C)(C)c1cc(O)ccc1O | 4.7%[5.75 µM]
CCCCc1nc2ccccc2c(C(=O)O)c1C | 0.2%

Reprinted at random: 2 compounds from above, in no set order.
SMILES | AmpC nodet inh
CP(C)(=O)CCC(=O)O | -3.7%
CSCCC(NC(=O)C1CCC(C)CC1)C(=O)N1CCN(c2ccccn2)CC1 (stereo not drawn) | 58.2%

Further compounds follow.
SMILES | AmpC nodet inh
CC(C)(C)NC(=O)c1ccc2c(c1)N(CC(=O)N1CCN(c3ccc(F)cc3)CC1)C(=O)C(C)(C)O2 | 91.1%
CCC(C)NC(=O)c1cnn2c(C)c3c(nc12)CCCC3 (stereo not drawn) | 29.9%
Cc1ccc2nc(NC(=O)c3cccs3)sc2c1 | ?
CCOC(=O)c1cc(-c2cc3ccccc3o2)n[nH]1 | 6.7%
CC1(C)CCCC2=C1CC1C(=O)N(c3ccccc3)C(=O)C1C2 (stereo not drawn) | 26.5%
O=C(O)CC1(C(=O)O)CCCCC1 | 7.5%[5.75 µM]
COc1ccc(N2CCN(CCNC(=O)C3CCN(S(=O)(=O)c4cccs4)CC3)CC2)cc1 | 79.5%
CCOC(=O)c1cc2cc(-c3c(C(=O)OCC)oc4cc(O)cc(O)c4c3=O)ccc2o1 | -21.1%
O=C(CNC(=O)c1ccco1)OCc1c(F)cccc1Cl | -13.0%
CCOc1ccc(-c2nnc(NC(=O)c3ccc(OCC(C)C)c(OC)c3)o2)cc1 | 51.1%
O=C(OCC(=O)N1CCC(Cc2ccccc2)CC1)c1ccc[nH]c1=O | 5.0%
COc1ccc(NC(=O)Nc2c(C)n(-c3ccccc3)c(=O)n2C)cc1OC | -6.8%
Cc1csc(NC(=O)C2CCCN(S(=O)(=O)c3cccnc3)C2)n1 (stereo not drawn) | 3.16µM*[single pt active]
Cc1ccc(NC(=O)C2CC(=O)NC(N3CCCCC3)=N2)cc1Cl (stereo not drawn) | 24.4%
N#Cc1ccc(CN2CCCC3(CCN(C(=O)c4ccco4)CC3)C2)cc1 | 43.6%
CCn1c(COc2ccc(OC)cc2)nnc1SCC(=O)Nc1cc(OC)ccc1OC | 82.1%
O=c1cc(Cn2nnc(-c3ccc(Cl)cc3)n2)nc2sccn12 | 40.0%
Cc1ccc2nc(NC(=O)C3CCCN(S(=O)(=O)c4cccc5nsnc45)C3)sc2c1 (stereo not drawn) | -6.5%
CN(C1CCCCC1)S(=O)(=O)c1ccc(NC(=O)c2ccco2)cc1 | 20.2%
CN=c1scc(C)n1/N=C/c1ccc2c(c1)OCO2 | 15.4%
COc1ccc2[nH]cc(CCNc3cc(-c4ccc5c(c4)OCO5)ncn3)c2c1 | 12.0%
COC(=O)c1c(F)c(F)c(NCCO)c(F)c1F | -7.6%
CCCCS(=O)(=O)c1sc2nc(C)cc(C)c2c1N | 8.6%
O=P(O)(CCc1ccccn1)CN1CCOCC1 | -6.1%
CC1Cc2cc(/C(O)=C3/C(=O)C(=O)N(Cc4ccco4)C3c3cccs3)ccc2O1 (stereo not drawn) | -19.3%
CCCn1c2c(c(O)c(C(=O)Nc3ncccc3O)c1=O)CCCC2 | 24.4%

Part of the list above, reformatted.
| smiles | AmpC nodet inh |
| --- | --- |
| CC1Cc2cc(/C(O)=C3/C(=O)C(=O)N(Cc4ccco4)C3c3cccs3)ccc2O1 (stereo not drawn) | -19.3% |
| CCOC(=O)c1cc(-c2cc3ccccc3o2)n[nH]1 | 6.7% |
| CCn1c(COc2ccc(OC)cc2)nnc1SCC(=O)Nc1cc(OC)ccc1OC | 82.1% |
| O=C(CNC(=O)c1ccco1)OCc1c(F)cccc1Cl | -13.0% |

Source: PubChem

This is a subset, so the mix of outcomes need not match the whole.
